# High-throughput results as filed in PubChem BioAssay.
# FGF22 binding: FGF22 (human) thermal shift binding; recombinant FGF22 thermal shift, SYPRO orange fluorescence; percent of sucrose octasulfate shift, DMSO zero; calls only at 9.99 µM; actives 1.5% (n = 340,000); AID 651658;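 active = melting point raised past a set limit in the mean and every replicate; three in four hits are not shown here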
# Target sequence (Q9HCT0 whole entry, looked up): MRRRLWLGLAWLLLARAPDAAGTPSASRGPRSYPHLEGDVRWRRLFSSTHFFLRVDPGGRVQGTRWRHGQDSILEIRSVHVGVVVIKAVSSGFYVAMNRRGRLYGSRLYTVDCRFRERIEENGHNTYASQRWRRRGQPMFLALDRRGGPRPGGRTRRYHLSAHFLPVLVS
# Calls only; i = inactive; + = active, no number. A portion of the library; rates above refer to the full screens.
FGF22 binding | SMILES
i | C[C@H](CO)N1C[C@H](C)[C@@H](CN(C)Cc2ccc3c(c2)OCO3)OCCCC[C@H](C)Oc2ccc(NS(C)(=O)=O)cc2C1=O
i | CO[C@H]1CN(C)C(=O)c2cc(NC(=O)Nc3cccc(F)c3)ccc2OC[C@H](C)NC[C@H]1C
i | CC(=O)Nc1ccc2c(c1)C(=O)N(C)[C@H]1CC[C@H](CC(=O)NCc3ccc(Cl)cc3)O[C@H]1CO2
i | Cc1noc(C)c1NC(=O)N(C)C[C@@H]1Oc2ccc(NC(=O)Nc3ccc4c(c3)OCO4)cc2C(=O)N([C@H](C)CO)C[C@H]1C
i | C[C@@H]1CN([C@H](C)CO)C(=O)Cc2cc(NS(=O)(=O)c3cccs3)ccc2O[C@H]1CN(C)C
i | O=C(N[C@@H]1CC[C@@H](CCn2cc(C3(O)CCCC3)nn2)O[C@@H]1CO)C1CCCCC1
i | COCCNC(=O)C[C@@H]1CC[C@H]2[C@H](COc3ccc(NC(=O)C4CCOCC4)cc3C(=O)N2C)O1
i | C/C=C/c1cnc2c(c1)C(=O)N([C@@H](C)CO)C[C@@H](C)[C@H](CN(C)S(=O)(=O)c1ccccc1F)O2
i | CC(C)C#Cc1cnc2c(c1)C(=O)N([C@H](C)CO)C[C@H](C)[C@@H](CN(C)C(=O)Nc1cc(F)ccc1F)O2
i | Cc1noc(C)c1S(=O)(=O)N(C)C[C@H]1OCCCC[C@H](C)Oc2ccc(NC(=O)Cc3ccccc3)cc2C(=O)N([C@@H](C)CO)C[C@H]1C
i | C[C@@H]1CN([C@@H](C)CO)C(=O)c2cccc(NC(=O)C3CCCCC3)c2O[C@H]1CN(C)Cc1ccncc1
i | Cc1noc(C)c1NC(=O)N(C)C[C@@H]1Oc2c(NC(=O)CCCCCC(=O)Nc3ccccc3N)cccc2C(=O)N([C@@H](C)CO)C[C@H]1C
i | C[C@@H]1CN([C@H](C)CO)C(=O)c2cc(-c3cccc(F)c3)cnc2O[C@H]1CN(C)C(=O)Nc1cc(F)ccc1F
i | COc1ccc(S(=O)(=O)N(C)C[C@@H]2Oc3ccc(NC(=O)Nc4ccccc4)cc3C(=O)N([C@H](C)CO)C[C@@H]2C)cc1
i | C[C@H](CO)N1C[C@H](C)[C@H](CN(C)Cc2ccccn2)Oc2cc(C#C[C@@H](C)O)ccc2S1(=O)=O
i | COc1ccccc1C#Cc1ccc([C@H]2[C@H](CO)N3CCCCN(C(=O)C4CCCC4)C[C@@H]23)cc1
i | CC(C)NC(=O)N(C)C[C@H]1OCCCC[C@H](C)Oc2ccc(NS(=O)(=O)c3cccs3)cc2C(=O)N([C@@H](C)CO)C[C@@H]1C
i | CCCNC(=O)[C@@H]1[C@@H](CO)[C@@H]2Cn3c(ccc(-c4ccc(F)cc4)c3=O)[C@H]1N2C(=O)NC(C)C
i | C[C@@H]1CCCCO[C@H](CN(C)Cc2ccc(C(=O)O)cc2)[C@@H](C)CN([C@@H](C)CO)C(=O)c2cc(NC(=O)Nc3cccc4ccccc34)ccc2O1
i | CCN(C[C@@H]1N[C@@H](CO)[C@@H]1c1ccccc1)C(=O)c1ccncc1
i | Cc1noc(C)c1NC(=O)N(C)C[C@@H]1Oc2c(NS(C)(=O)=O)cccc2C(=O)N([C@H](C)CO)C[C@@H]1C
i | COCC(=O)N1C[C@H](C)[C@H](OC)CN(C)C(=O)c2cc(NC(=O)c3ccccc3)ccc2OC[C@@H]1C
i | Cc1ccc(S(=O)(=O)N2C[C@@H](O)COC[C@@H]3O[C@@H](CC(=O)N[C@H]4CCN(Cc5ccccc5)C4)CC[C@H]32)cc1
i | CO[C@@H]1CN(C)C(=O)c2ccc(NC(=O)Nc3ccccc3Cl)cc2OC[C@H](C)NC[C@@H]1C
i | C[C@H](CO)N1C[C@H](C)[C@@H](CN(C)S(C)(=O)=O)OCCCC[C@H](C)Oc2ccc(NC(=O)Cc3ccccc3)cc2C1=O
i | COCC(=O)Nc1ccc2c(c1)C(=O)N(C)[C@@H]1CC[C@@H](CC(=O)N3CCc4ccccc4C3)O[C@H]1CO2
i | Cc1noc(C)c1S(=O)(=O)N(C)C[C@@H]1OCCCC[C@@H](C)Oc2ccc(NC(=O)NC(C)C)cc2C(=O)N([C@@H](C)CO)C[C@@H]1C
i | COc1ccc(NC(=O)N(C)C[C@@H]2Oc3ncc(C#Cc4ccc(C(F)(F)F)cc4)cc3C(=O)N([C@H](C)CO)C[C@@H]2C)cc1
i | CCC(=O)N1[C@@H](CO)[C@H](c2ccc(-c3ccc(C#N)cc3)cc2)C12CN(C(C)=O)C2
i | CC(C)NC(=O)Nc1ccc2c(c1)C(=O)N([C@H](C)CO)C[C@H](C)[C@@H](CN(C)CC1CC1)OCCCC[C@@H](C)O2
i | C[C@H]1CN([C@@H](C)CO)C(=O)Cc2cc(NS(=O)(=O)c3ccccc3)ccc2O[C@@H]1CN(C)C(=O)Nc1ccccc1
i | C[C@@H]1CN([C@H](C)CO)C(=O)c2cccc(NC(=O)c3nc4ccccc4s3)c2O[C@@H]1CN(C)S(=O)(=O)c1ccc(F)cc1
i | CO[C@@H]1CN(C)C(=O)c2cc(NC(=O)c3cccc(F)c3)ccc2OC[C@@H](C)NC[C@@H]1C
i | Cc1noc(C)c1NC(=O)N(C)C[C@@H]1Oc2ncc(/C=C/c3ccccc3)cc2C(=O)N([C@H](C)CO)C[C@H]1C
i | CO[C@@H]1CN(C)C(=O)c2ccc(NC(=O)Nc3ccccc3F)cc2OC[C@H](C)NC[C@H]1C
i | C[C@@H]1CN([C@H](C)CO)C(=O)c2cccc(NC(=O)Nc3cccc4ccccc34)c2O[C@@H]1CN(C)C(=O)Nc1ccc(F)cc1
i | CN(C[C@H]1N[C@@H](CO)[C@@H]1c1ccccc1)C(=O)c1ccccn1
i | CC(C)C(=O)Nc1ccc2c(c1)C(=O)N(C)[C@@H]1CC[C@H](CC(=O)NCc3ccccc3)O[C@@H]1CO2
i | N#C[C@H]1[C@H](c2ccccc2)[C@H](CO)N1C(=O)c1cccnc1
i | COC(=O)c1cn(CCNC(=O)[C@@H](NS(=O)(=O)c2ccc(C)cc2)C(C)C)nn1
i | CO[C@@H]1CN(C)C(=O)c2ccc(NC(=O)C3CC3)cc2OC[C@H](C)N(C(=O)c2ccccn2)C[C@@H]1C
i | C[C@H](CO)N1C[C@H](C)[C@@H](CN(C)C(=O)CCC(F)(F)F)OCCCC[C@H](C)Oc2ccc(NS(=O)(=O)c3ccccc3)cc2C1=O
i | Cc1cccc(S(=O)(=O)N2C[C@H]3[C@@H](c4ccccc42)[C@@H](CO)N3C(=O)c2ccccc2)c1
i | C[C@H]1CN([C@@H](C)CO)C(=O)c2cc(NS(=O)(=O)c3ccc(Cl)cc3)ccc2O[C@H]1CN(C)C(=O)Nc1ccccc1
i | C[C@@H]1CN([C@@H](C)CO)C(=O)c2cc(-c3ccccc3)cnc2O[C@H]1CN(C)C(=O)C1CCCCC1
i | COc1ccc(CN(C)C[C@H]2Oc3ccc(NC(=O)c4ccncc4)cc3CC(=O)N([C@H](C)CO)C[C@H]2C)cc1
i | C[C@H]1CCCCO[C@H](CN(C)S(=O)(=O)c2cccs2)[C@@H](C)CN([C@@H](C)CO)C(=O)c2cc(N(C)C)ccc2O1
i | COc1cccc(S(=O)(=O)N2CC[C@@H]3[C@H]2c2cc(-c4ccc(C#N)cc4)ccc2N[C@@H]3CO)c1
i | C[C@H]1CN([C@@H](C)CO)C(=O)c2cc(C#CCN(C)C)cnc2O[C@@H]1CN(C)C(=O)c1ccc2c(c1)OCO2
i | CC(=O)N1CC(=O)N2[C@H](C1)[C@@H](c1ccc(-c3ccc(C)cc3)cc1)[C@@H]2CO
i | C[C@@H]1CCCCO[C@@H](CN(C)CC2CCCCC2)[C@@H](C)CN([C@H](C)CO)C(=O)c2cc(NC(=O)Nc3ccc(F)cc3)ccc2O1
i | N#Cc1cccc(-c2ccc3c(c2)[C@H]2[C@H](CCN2Cc2cncnc2)[C@@H](CO)N3)c1
i | CCCNC(=O)C[C@@H]1C[C@H]2c3cc(NC(=O)Nc4ccc(F)cc4)ccc3O[C@H]2[C@H](CO)O1
i | COc1ccc(NC(=O)N(C)C[C@H]2OCCCC[C@H](C)Oc3ccc(NC(=O)NC4CCCCC4)cc3C(=O)N([C@@H](C)CO)C[C@H]2C)cc1
i | COc1ccc(NC(=O)N(C)C[C@H]2Oc3ccc(NC(=O)Nc4c(C)noc4C)cc3CC(=O)N([C@@H](C)CO)C[C@H]2C)cc1
i | COCC(=O)Nc1ccc2c(c1)C(=O)N(C)C[C@H](OC)[C@H](C)CN(C(=O)C1CCCC1)[C@H](C)CO2
i | CCC(=O)N1[C@@H]2c3ccc(C4=CCCC4)c(=O)n3C[C@@H]2[C@@H](CO)[C@@H]1C(=O)NCc1ccccc1
i | C[C@@H]1CCCCO[C@H](CN(C)S(C)(=O)=O)[C@@H](C)CN([C@H](C)CO)C(=O)c2cc(NC(=O)NC3CCCCC3)ccc2O1
i | O=C(N[C@H](Cc1ccccc1)C(=O)NCC1CCCCC1)[C@H]1O[C@@H](n2ccc(=O)[nH]c2=O)[C@H](O)[C@@H]1O
i | CNC(=O)C[C@H]1CC[C@H]2[C@@H](COC[C@@H](O)CN2S(=O)(=O)c2ccc(Oc3ccccc3)cc2)O1

# Another view of part of the listing above.
structure,FGF22 binding
COc1cccc(S(=O)(=O)N2CC[C@@H]3[C@H]2c2cc(-c4ccc(C#N)cc4)ccc2N[C@@H]3CO)c1,i
C[C@H]1CN([C@@H](C)CO)C(=O)c2cc(C#CCN(C)C)cnc2O[C@@H]1CN(C)C(=O)c1ccc2c(c1)OCO2,i
CC(=O)N1CC(=O)N2[C@H](C1)[C@@H](c1ccc(-c3ccc(C)cc3)cc1)[C@@H]2CO,i

# (listing goes on)
FGF22 binding | SMILES
i | O=C(C[C@@H]1CC[C@@H]2[C@H](COC[C@H](O)CN2CCC(F)(F)F)O1)NCC1CCCCC1
i | Cc1[nH]c2ccccc2c1CC(=O)Nc1ccc(Nc2cccnc2)c(-c2ccc(C(C)(C)C)cc2)c1
i | CC(=O)N(C)C[C@@H]1Oc2cc(C#CCC(C)C)ccc2S(=O)(=O)N([C@H](C)CO)C[C@@H]1C
i | O=C(C[C@H]1C=C[C@@H](NC(=O)c2ccccn2)[C@@H](CO)O1)NCc1cc(F)cc(F)c1
i | C[C@@H]1CCCCO[C@@H](CN(C)C(=O)Nc2ccccc2)[C@H](C)CN([C@@H](C)CO)C(=O)c2cc(NS(=O)(=O)c3cn(C)cn3)ccc2O1
i | C[C@@H]1CN([C@@H](C)CO)C(=O)Cc2cc(NC(=O)CCCCCC(=O)Nc3ccccc3N)ccc2O[C@H]1CN(C)Cc1ccncc1
i | C[C@@H]1CN([C@@H](C)CO)C(=O)c2cc(NC(=O)CCN3CCOCC3)ccc2O[C@H]1CN(C)C(=O)Nc1cccc2ccccc12
i | COc1ccc(NC(=O)N(C)C[C@@H]2Oc3ccc(NS(=O)(=O)c4ccccc4)cc3CC(=O)N([C@@H](C)CO)C[C@@H]2C)cc1
i | O=C(CCN1CCCCC1)N[C@@H]1CC[C@@H](CCNS(=O)(=O)c2ccc(F)cc2)O[C@H]1CO
i | CCC(=O)N(C)C[C@@H]1Oc2ncc(C#Cc3cccnc3)cc2C(=O)N([C@@H](C)CO)C[C@@H]1C
i | O=C(NC1CCCC1)N1CCCCN2[C@H](CO)[C@@H](c3ccc(-c4ccncc4)cc3)[C@H]2C1
i | CN1C(=O)c2cc(NC(=O)Nc3ccccc3Cl)ccc2OC[C@@H]2O[C@@H](CC(=O)NCCCN3CCOCC3)CC[C@@H]21
i | CO[C@@H]1CN(C)C(=O)c2ccc(NC(=O)c3cnccn3)cc2OC[C@@H](C)N(CC2CC2)C[C@H]1C
i | C[C@H]1CN([C@@H](C)CO)S(=O)(=O)c2ccc(/C=C/c3ccccc3)cc2O[C@H]1CN(C)C(=O)C1CC1
+ | C[C@H](CO)N1C[C@H](C)[C@@H](CN(C)C(=O)Nc2ccc(F)cc2)OCCCC[C@H](C)Oc2ccc(NC(=O)Nc3ccc(C(F)(F)F)cc3)cc2C1=O
i | CCS(=O)(=O)Nc1ccc2c(c1)C(=O)N(C)C[C@@H](OC)[C@@H](C)CN(Cc1ccccn1)[C@@H](C)CO2
i | CN(C)CC(=O)N1[C@@H]2c3ccc(-c4ccccc4)c(=O)n3C[C@H]1[C@H](CO)[C@H]2C(=O)N1CCOCC1
i | CCCc1cn(CC[C@H]2CC[C@H](NC(=O)CCN3CCCCC3)[C@H](CO)O2)nn1
i | C[C@@H]1CCCCO[C@H](CN(C)C(=O)Cc2ccccc2)[C@@H](C)CN([C@H](C)CO)C(=O)c2cc(NC(=O)Nc3ccc(F)cc3)ccc2O1
i | C[C@H]1CN([C@@H](C)CO)C(=O)c2cccc(NC(=O)NC3CCCCC3)c2O[C@H]1CN(C)C(=O)Nc1ccc(F)cc1
i | COc1ccc(C#Cc2ccc([C@@H]3[C@@H](CO)N4CCCCN(C(=O)Nc5ccccc5F)C[C@H]34)cc2)cc1
i | CNC(=O)C[C@H]1CC[C@H]2[C@@H](COc3ccc(NC(=O)c4ccc5c(c4)OCO5)cc3C(=O)N2C)O1

# Arranged by length of the SMILES (lowest first): five of the compounds above
FGF22 binding | SMILES
i | Cc1[nH]c2ccccc2c1CC(=O)Nc1ccc(Nc2cccnc2)c(-c2ccc(C(C)(C)C)cc2)c1
i | O=C(C[C@H]1C=C[C@@H](NC(=O)c2ccccn2)[C@@H](CO)O1)NCc1cc(F)cc(F)c1
i | C[C@H]1CN([C@@H](C)CO)C(=O)c2cccc(NC(=O)NC3CCCCC3)c2O[C@H]1CN(C)C(=O)Nc1ccc(F)cc1
i | C[C@@H]1CN([C@@H](C)CO)C(=O)Cc2cc(NC(=O)CCCCCC(=O)Nc3ccccc3N)ccc2O[C@H]1CN(C)Cc1ccncc1
i | C[C@@H]1CCCCO[C@H](CN(C)C(=O)Cc2ccccc2)[C@@H](C)CN([C@H](C)CO)C(=O)c2cc(NC(=O)Nc3ccc(F)cc3)ccc2O1
